WNV NS2B-NS3 inh – inhibitors of WNV NS2B-NS3 protease, primary screen, biochemical, fluorogenic substrate. z-score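 (tested at a level between 10 and 100 µM)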. fluorogenic substrate Ex360/Em465; hits give low values. 65,000 compounds, 0.18% hits. Genome polyprotein (West Nile virus), P06935;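 active = z-score at -3 or under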;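 also: score is relative to mean and spread of the compound wells of a plate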
Target sequence (P06935 1371-1501 limits assumed): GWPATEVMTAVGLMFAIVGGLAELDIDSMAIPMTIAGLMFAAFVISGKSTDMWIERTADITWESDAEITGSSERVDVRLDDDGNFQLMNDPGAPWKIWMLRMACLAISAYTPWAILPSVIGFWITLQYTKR
Target sequence (P06935 1502-1679 limits assumed): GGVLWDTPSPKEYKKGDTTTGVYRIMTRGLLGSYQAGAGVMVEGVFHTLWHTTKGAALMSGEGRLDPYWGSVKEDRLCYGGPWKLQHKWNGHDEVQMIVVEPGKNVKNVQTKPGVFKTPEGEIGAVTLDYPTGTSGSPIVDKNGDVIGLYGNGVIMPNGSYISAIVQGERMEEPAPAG
Hsc70 ATP site – Hsc70 inhibitors, probe displacement, primary screen, biochemical, fluorescence polarization (AID 568). 83,000 tested, under 10 active. displacement, % at 20 µM, or IC50 in µM where a hit was titrated. Hsc70 fluorescence polarization, probe displacement; higher % means a stronger effect; strong numbers were not always called active. Heat shock cognate 71 kDa protein (Homo sapiens);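 active = displacement above 50% without optical interference and an IC50 on retest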;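 also: ATPase domain with a fluorescein-tagged ATP probe; 0% = vehicle and 100% = excess ADP; read after one hour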
MT1-MMP reporter – inhibitors of MT1-MMP promoter transcription, cell-based, luciferase reporter, luminescence (AID 618); MT1-MMP promoter luciferase reporter cells, luminescence; calls from a first round at 10 µM; hits with a dose series show EC50 in µM; 87,000 compounds, 0.62% hits;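 active = over half of the reporter light lost at 10 µM or EC50 under 50 µM; inactive = the rest and hits that failed the dose series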;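 also: actives suppress MT1-MMP promoter-driven transcription so potencies describe inhibitors; HT1080 fibrosarcoma cells; overnight exposure; toxic or luciferase-blocking compounds were not removed from the actives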
* = called active by the depositor; i = inactive; x = no result given.

Molecule | WNV NS2B-NS3 inh | Hsc70 ATP site | MT1-MMP reporter
CCNc1cccc2c1C(=O)N(C)C2=O | 0.37 | 136% | i
CCOCCCNC(=O)c1cn(C)c(=O)c2cc(OC)c(OC)cc12 | 0.5 | -7.4% | i
COC(=O)N/C(C)=C1/NC(=O)c2ccccc2C(c2ccccc2)N1 (stereo unspecified) | 0.78 | 1.8% | i
CCn1cc(C(=O)NCc2ccc3c(c2)OCO3)c2cc(OC)c(OC)cc2c1=O | -0.08 | -3.0% | i
COc1cc(C)c(CNc2ccc(OC)c(OC)c2)cc1C | -0.62 | 3.6% | i
Cn1c(=O)c2c(SC3CCCC3)nc(CC(C)(C)C)nc2n(C)c1=O | 0.27 | -3.2% | i
c1cncc(-c2nc(NCc3ccco3)c3ccccc3n2)c1 | -0.5 | 0.7% | i
N#Cc1nc(Cc2ccccc2)oc1N1CCN(c2cccc(Cl)c2)CC1 | 0.17 | 1.5% | i
O=C(Nc1nccs1)c1nc(-c2ccccc2)n(-c2ccccc2)n1 | -0.71 | -2.9% | i
CC(CCO)Nc1nc2c([nH]1)c(=O)n(C)c(=O)n2C (stereo unspecified) | -0.14 | 3.6% | i
Cc1ccc2cc(CCNC(=O)c3ccco3)c(=O)[nH]c2c1C | -1.5 | -1.9% | i
Cc1ccc(S(=O)(=O)N(CC(=O)N2CCCCC2)c2cccc(C)c2)cc1 | x | 4.5% | i
COCc1cc(C)nc(SCC(=O)N2CCC(C)CC2)c1C#N | 0.72 | -2.3% | i
O=C(CSc1nnc(-c2cccnc2)o1)Oc1ccccc1 | -0.06 | 6.1% | i
COc1ccccc1NC(=O)CSc1nnc(-c2ccccn2)n1Cc1ccco1 | 0.09 | -2.7% | i
CCOC(=O)CNC(=O)CSc1nnnn1-c1ccc(C)c(C)c1 | -0.58 | -6.8% | i
COc1cc(C)c(Cl)cc1S(=O)(=O)n1cnc(C)c1 | x | -0.4% | i
Cc1ccc2cc(CN(Cc3ccc4c(c3)OCO4)Cc3nnnn3Cc3ccco3)c(=O)[nH]c2c1 | -1.1 | -37% | i
Cn1nnnc1SCC(=O)Nc1ccc(Br)cc1Cl | -0.85 | -1.0% | i
CCc1ccccc1NC(=O)Cn1nc(C(F)(F)F)c2c1CCC2 | x | 2.3% | i
CCOC(=O)CNC(=O)Nc1cc(C(C)(C)C)nn1-c1ccccc1 | 0.26 | 1.8% | i
O=C(CSc1nnc(COc2cccc3ccccc23)o1)N1CCN(C(=O)c2ccco2)CC1 | 1.6 | 1.9% | i
CCN(Cc1ccccc1)C(c1ccc(Cl)cc1)c1nnnn1C(C)(C)C (stereo unspecified) | x | 0.2% | i
CCCCCn1c(CNC(=O)COC)nc2ccccc21 | -0.7 | -4.4% | i
CCN(CC)S(=O)(=O)c1ccc2c(c1)nc(CCC(=O)OCC(=O)N1CCc3ccccc31)n2C | 1.2 | -6.6% | i
CC1CC1C(=O)OCC(=O)NCc1ccccc1Cl (stereo unspecified) | -0.65 | -1.3% | i
O=C1c2ccccc2C(=O)N1CCC(c1ccc(F)cc1)c1ccco1 (stereo unspecified) | -0.84 | 3.4% | i
CC(C(=O)Nc1ccccn1)N1C(=O)C2C3C=CC(C3)C2C1=O (stereo unspecified) | 0.58 | 6.1% | i
N#C/C(=C\c1ccc(OCc2ccccc2)cc1)C(=O)Nc1nc2c(s1)CCN(Cc1ccccc1)C2 | x | -37% | i
CC(=O)NC1C(=O)N=C(SCC(=O)NC(C)c2ccccc2)NC1=O (stereo unspecified) | -1 | 1.1% | i
CC(C)CN(CC(C)C)C(=O)CS(=O)(=O)Cc1ccccc1 | -0.07 | -3.6% | i
COc1ccc(C2C(C(=O)N3CCOCC3)=C(C)NC3=C2C(=O)CC(C)(C)C3)cc1O (stereo unspecified) | -0.16 | 7.0% | i
CCCCN(C)Cc1c(C)[nH]c2ccc(C)cc2c1=O | x | -4.9% | i
COc1ccc(CCn2c(-c3ccco3)nc3oc4ccccc4c(=O)c3c2=O)cc1 | 0.57 | -1.3% | i
COc1ccc(-c2oc(NC(=O)CCl)c(C#N)c2-c2ccc(OC)cc2)cc1 | x | 0.6% | i
CCCNC(=O)NC1C(NC(=O)NCCC)N(C)C(=O)N1C (stereo unspecified) | 1.2 | -2.5% | i
COc1cc(NC(=O)c2cc(CC(C)C)on2)c(OC)cc1Cl | 0.82 | 0.2% | i
CCC(C)Oc1cccc(OCCCCN2C(=O)NC(C)(C)C2=O)c1 (stereo unspecified) | -1.7 | -0.7% | i
CC(C)CCN(C)c1ccc(/C=N/n2cnnc2)cc1 | x | 0.6% | i
Cc1cc(C(=O)COC(=O)Cn2c(C(F)(F)F)nc3ccccc32)c(C)n1Cc1ccco1 | 0.06 | 0.5% | i
Cc1oc(/N=C/c2cccc3ccccc23)c(C#N)c1C | -0.01 | 3.2% | i
CCOC(=O)c1[nH]c2ccc(F)cc2c1NC(=O)c1cc(OC)c(OC)c(OC)c1 | 0.53 | -2.7% | i
CCOC(=O)CSC1=C(C#N)C(c2ccc(C)cc2)C2=C(CCCC2=O)N1 (stereo unspecified) | 1.6 | -2.3% | i
c1coc(-c2nn3c(-c4ccco4)nnc3s2)c1 | -1.3 | -3.5% | i
N#C/C(=C\c1ccc[nH]1)Sc1nc2ccccc2s1 | -1.2 | -5.8% | i
Cc1ccc(C)c(-c2nc3ccc(N)cc3[nH]2)c1 | -0.16 | -1.1% | i
O=C(NCCC(=O)N1CCN(c2ncccn2)CC1)c1ccccc1 | 0.26 | -3.1% | i
COc1cc(C2C3C(=O)N(c4ccccc4)C(=O)C3ON2c2ccccc2)cc(OC)c1OC (stereo unspecified) | -0.22 | 3.4% | i
CC(=O)Nc1c(C#N)c(C(C)(C)C)cn1C | -0.59 | -2.0% | i
Cc1cc(NC(=O)c2noc3c2CCCCC3)nn1Cc1ccc(Cl)cc1 | -0.92 | 1.6% | i
CCOC(=O)c1sc2nc(NC(=O)C(C)(C)C)sc2c1C | -0.15 | 1.6% | i
CC(NC(=O)c1ccccc1)c1nc2ccccc2n1Cc1ccc(C#N)cc1 (stereo unspecified) | 1.3 | 3.0% | i
CCOc1ccc(Oc2nc(NCC(C)C)nc(OC)n2)nn1 | -1.7 | 0.5% | i
COc1ccc(OC)c(NC(=O)C(CC(=O)O)NCc2ccco2)c1 (stereo unspecified) | -0.69 | 1.6% | i
CCC(C)(C(=O)NC1CCCCC1)N(CC1CCCO1)C(=O)c1ccccn1 (stereo unspecified) | 0.56 | -1.6% | i
CCOc1ccc(-n2c(SCC(=O)Nc3cc(C)on3)nnc2-c2c[nH]c3ccccc23)cc1 | x | 3.5% | i
Nc1ccc2oc(=O)c3ccccc3c2c1 | -0.74 | 1.8% | i
O=C(CSc1nnnn1C1CCCC1)NCc1ccc2c(c1)OCO2 | -0.51 | 4.2% | i
CC(C)c1nc(C#N)c(NCCCn2ccnc2)o1 | 0.2 | 5.0% | i
COc1ccccc1Oc1ccc2c(c1)C(=O)N(c1ccc(O)cc1)C2=O | -1.5 | -1.1% | i

One compound at a time (already shown):
Profile of CCCCCn1c(CNC(=O)COC)nc2ccccc21 → WNV NS2B-NS3 inh = -0.7; Hsc70 ATP site = -4.4%; MT1-MMP reporter = i
Profile of Cc1cc(C(=O)COC(=O)Cn2c(C(F)(F)F)nc3ccccc32)c(C)n1Cc1ccco1 → WNV NS2B-NS3 inh = 0.06; Hsc70 ATP site = 0.5%; MT1-MMP reporter = i

Later entries.
Molecule | WNV NS2B-NS3 inh | Hsc70 ATP site | MT1-MMP reporter
CCSc1nc2cc(C(=O)OC)ccc2c(=O)n1CC | -0.49 | -3.6% | i
Cc1ccc(-n2c(CNc3ccc(F)cc3)nnc2SCC(N)=O)cc1 | x | -3.3% | i
COCC(=O)Nc1sc2c(c1C(=O)OC)C(C(=O)OC)CC2 (stereo unspecified) | -0.18 | -1.0% | i
CCCC(=O)NC(Nc1ccc(S(=O)(=O)Nc2cc(C)on2)cc1)(C(F)(F)F)C(F)(F)F | x | 5.5% | i
CCOc1ccc2nc(NC(=O)Cn3cnc4c3c(=O)n(C)c(=O)n4C)sc2c1 | 0.39 | -0.2% | i
COC(=O)c1ccc(Nc2ncnc3c2cnn3-c2cccc(C)c2)cc1 | -1.4 | 4.1% | i
O=C(OCC(=O)N1CCCCCC1)c1n[nH]c(=O)c2ccccc12 | -0.25 | 6.3% | i
COCCNC(=O)Cn1nc(C(F)(F)F)cc1C | 0.49 | 9.0% | i
CCn1c(SCC(=O)c2ccc(CNC(C)=O)o2)nnc1-c1cccs1 | 0.51 | -3.4% | i
Cc1cccc(N(CC(=O)N2CCCC2)S(=O)(=O)c2ccccc2)c1C | 0.0019 | 1.2% | i
Cc1nnc(SCC(=O)Nc2ccc(Cl)cn2)n1Cc1ccccc1 | -0.04 | -4.5% | i
O=C1C2C3C=CC(C2C(=O)N1C1CCCCC1)C1C(=O)N(C2CCCCC2)C(=O)C31 (stereo unspecified) | x | -2.7% | i
O=C(NCCCN1CCN(c2ccccc2F)CC1)C1CCC(=O)N1C1CCCCC1 (stereo unspecified) | 0.93 | -0.1% | i
CCC(=O)Nc1ccc(S(=O)(=O)NCC2CCCO2)cc1 (stereo unspecified) | x | 7.0% | i
Cc1cc(NC(=O)Cn2cnc3c2c(=O)n(C)c(=O)n3C)n(-c2ccccc2)n1 | -0.38 | -2.8% | i
CC1(C)CC(=O)C2=C(C1)N(Cc1ccco1)C(=O)C2(NC(=O)C1CCCCC1)C(F)(F)F (stereo unspecified) | 0.63 | 4.9% | i
Cc1ccc2[nH]c3c(=O)n(CCN4CCNCC4)cnc3c2c1 | -0.3 | -3.7% | i
Cc1ccc(-c2nn(Cc3ccccc3)cc2/C=C/C(=O)O)cc1C | x | 3.6% | i
CCNc1nc(OC)nc(Oc2ccc(=O)n(-c3ccccc3)n2)n1 | -0.67 | -1.3% | i
Cc1ccc(C)c(NC(=S)NNC(=O)c2csc(C(C)C)c2)c1 | x | -1.4% | i
CCOCCCNC(=O)C1CCC(=O)N1CCc1ccccc1 (stereo unspecified) | -0.9 | -2.9% | i
CC(C)(C)NC(=O)CSc1nccn1Cc1ccccc1 | -0.73 | 0.1% | i
CN(C)S(=O)(=O)c1ccc(NC(=O)c2ccccn2)cc1 | 0.36 | -2.3% | i
COc1cccc2cc(C(=O)C3=C(O)C(=O)N(Cc4ccco4)C3c3cccnc3)oc12 (stereo unspecified) | -0.56 | -0.8% | i
COC(=O)c1cc2sccc2n1CC(=O)Nc1cc(OC)cc(OC)c1 | 1.7 | -3.4% | i
CCOC(=O)CCSc1nc(C)c2cc(C)c(C)cc2n1 | x | -2.2% | i
CCCCNC(=O)c1cc2c(=O)n3cccc(C)c3nc2n(Cc2ccccc2)c1=N | 0.99 | 4.9% | i
CCOC(=O)NCCc1c(C)nc2c(c(C)nn2C(C)(C)C)c1C | -0.47 | -0.7% | i
COc1ccccc1N1CCN(C2=CC(=O)CCC2)CC1 | -0.65 | 5.9% | i
CCOc1ccccc1NS(=O)(=O)c1ccc(OC)c(OC)c1 | 0.75 | -6.7% | i
COc1cc(NC(=O)COC(=O)c2nc3nc(C)cc(C)n3n2)cc(OC)c1 | x | -0.4% | i
CC(C)c1cc(CN2CCN(CCC#N)CC2)cc(C(C)C)c1O | -0.83 | -3.3% | i
CS(=O)(=O)Nc1ccc(C(=O)N2CCCC2)cc1 | x | 3.2% | i
Cc1ccnn1CCSCC(=O)O | x | 3.6% | i
CCOC(=O)C1CCN(C(=O)COC(=O)c2ccc(Br)o2)CC1 | 1.8 | -1.1% | i
C=CCn1c(C)cc(C(=O)CSc2nnc(NCc3ccccc3)s2)c1C | -0.68 | 3.4% | i

2 compounds drawn at random from the list so far, as already listed:
Molecule | WNV NS2B-NS3 inh | Hsc70 ATP site | MT1-MMP reporter
COc1ccccc1N1CCN(C2=CC(=O)CCC2)CC1 | -0.65 | 5.9% | i
C=CCn1c(C)cc(C(=O)CSc2nnc(NCc3ccccc3)s2)c1C | -0.68 | 3.4% | i

(listing goes on)
Molecule | WNV NS2B-NS3 inh | Hsc70 ATP site | MT1-MMP reporter
COc1cc2cc(CN(Cc3ccc4c(c3)OCO4)C(=O)c3ccco3)c(=O)[nH]c2cc1OC | x | -1.6% | i
COC(=O)c1cccc(CSc2nnc(C)s2)c1 | 0.8 | 4.0% | i
Cc1c(C(=O)N2CCOCC2)sc2nc(-c3ccccc3)cn12 | -1.2 | 4.1% | i
CCOC(=O)c1c(C)noc1CP(=O)(c1ccccc1)c1ccccc1 | -0.61 | 1.2% | i
COc1ccc(C(=O)Nc2c3c(nn2-c2cccc(Cl)c2)CS(=O)C3)cc1 (stereo unspecified) | -0.27 | -0.3% | i
COc1ccc(-c2cc3nc4c(c(N5CCC6(CC5)OCCO6)n3n2)CCCC4)cc1 | 1.2 | -1.2% | i
Cc1ccc2[nH]c3c(=O)n(CCC4=CCCCC4)cnc3c2c1 | x | 6.0% | i
Cc1ccc(C2/C(=C(\O)c3cnn(-c4ccccc4)c3C)C(=O)C(=O)N2CCN(C)C)o1 (stereo unspecified) | -0.0046 | -4.3% | i
CCS(=O)(=O)N1CCC(C(=O)NCc2cccc(OC)c2)CC1 | 0.73 | -0.1% | i

Screens as filed in PubChem BioAssay.
